StopGo reporter = High Throughput Screening for Foot and Mouth Disease Virus Antivirals | human cells with a luciferase reporter of 2A StopGo recoding; control for the full effect not named in the record | Potency, µM (top dose mostly 57.9 µM), without a hit: at the highest dose signal change, negative = less light | 410,000 compounds, 1.2% hits; active = well fitted falling curve with a large enough effect; inconclusive = small, poorly fitted or top-dose-only effect; inactive = no such curve, though single readings can be large or run the other way; tested in HEK293T cells; note: % is set by controls: 0 for no effect and ±100 for the full control effect; nearly all actives have a fitted effect of over 45% in size; luciferase light after 4 h
NS1 function inh = qHTS Assay for Inhibitors of Influenza NS1 Protein Function | S. cerevisiae slowed by influenza A NS1, growth recovery by OD600 | Potency, µM (highest dose often 46.1 µM), without a hit: top-dose activity, positive = more growth | 270,000 compounds, 0.4% hits; active means well fitted rising curve with a large enough effect; inconclusive means small, poorly fitted or top-dose-only effect; inactive means no such curve, though single readings can be large or run the other way; note: nearly all actives have a fitted effect of over 50% in size
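S. cerevisiae expressing influenza A NS1, grown in glucose, washed, then diluted 1:100 into pH 6.0 -URA galactose medium with 23 nl compound. Growth recovery read as OD600; NS1-free strain serves as control.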
LASV entry inh = qHTS for Inhibitors of binding or entry into cells for Lassa Virus; Lassa virus pseudotype entry inhibition, cell reporter; control for the full effect not named in the record; Potency, µM (top dose mostly 37.9 µM), without a hit: at the top dose activity change, negative = inhibition, hits mostly inhibitors; 300,000 compounds, 1.2% hits; active means well fitted inhibition curve with a large enough effect; inconclusive means small, poorly fitted or top-dose-only effect, or effect the other way; inactive means flat fitted curve, though single readings scatter; tested in HEK293 cells; note: % is set by controls: 0 for no effect and ±100 for the full control effect; nearly all actives have a fitted effect of over 50% in size; luciferase read-out
RE007 growth inh = qHTS Assay for Inhibitors of the HIV-1 protein Vpr; S. pombe RE007 Vpr strain, BacTiter-Glo ATP luminescence, 24 h; control for the full effect not named in the record; Potency, µM (titrated, usually from 92.2 µM), inactives show at the highest dose activity change, negative = less growth; 360,000 compounds, 0.21% hits; AID 651644, 2012; active = well fitted falling curve with a large enough effect; inconclusive = small, poorly fitted or top-dose-only effect; inactive = no such curve, though single readings can be large or run the other way;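 note: % is set by controls: 0 for no effect and ±100 for the full control effect; nearly all actives have a fitted effect of over 50% in size; the assay follows cell death caused by Vpr and the record does not say whether a fall means rescue or toxicity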
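Fission yeast RE007 carrying one integrated HIV-1 vpr copy, seeded at OD 0.01 in PMG+AL medium with 23 nL pinned compound. Grown 24 h at 30 degrees; viability read by BacTiter-Glo luminescence after 5 min.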
SARS PLP yeast = qHTS of Yeast-based Assay for SARS-CoV PLP | S. cerevisiae expressing SARS-CoV PLpro, growth rescue; control for the full effect not named in the record | Potency, µM (series often up to 32.9 µM), for inactives: at the top dose activity, positive = growth rescue | 330,000 compounds, 0.19% hits; active means well fitted rising curve with a large enough effect; inconclusive means small, poorly fitted or top-dose-only effect; inactive means no such curve, though single readings can be large or run the other way; note: 0% is about no effect; nearly all actives have a fitted effect of over 55% in size; growth read by luminescence after 48 h
Cruzain inh noDet = qHTS Assay for Promiscuous and Specific Inhibitors of Cruzain (without detergent) | purified cruzain, Z-FR-AMC fluorescence, no detergent | 200,000 compounds, 2.3% hits | Cruzipain (Trypanosoma cruzi), P25779 | Potency, µM, inactives show max response, negative = inhibition, hits mostly inhibitors;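 note: plate controls were enzyme without inhibitor for no effect and buffer without enzyme for full effect; nearly all actives have a fitted effect of over 40% in size; top concentration of the series not given in the record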
Target sequence (P25779 123-467 limits assumed): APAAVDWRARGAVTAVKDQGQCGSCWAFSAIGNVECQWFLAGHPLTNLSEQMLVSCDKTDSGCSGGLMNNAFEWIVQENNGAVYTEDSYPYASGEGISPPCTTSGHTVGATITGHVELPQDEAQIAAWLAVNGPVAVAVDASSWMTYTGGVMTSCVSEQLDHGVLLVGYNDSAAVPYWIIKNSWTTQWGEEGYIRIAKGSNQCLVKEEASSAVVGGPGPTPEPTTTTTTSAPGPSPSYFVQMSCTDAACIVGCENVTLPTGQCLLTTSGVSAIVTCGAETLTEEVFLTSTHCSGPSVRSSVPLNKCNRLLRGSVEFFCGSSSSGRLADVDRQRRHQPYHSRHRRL
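Purified cruzain at 1.5 nM, pre-incubated 15 min with compound at room temperature in 100 mM sodium acetate pH 5.5, 5 mM DTT, 0.00005% Triton X-100. Reaction started with 2 uM Z-FR-AMC; AMC fluorescence increase over 60 s gives rate.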
MARV entry inh = qHTS for inhibitors of binding or entry into cells for Marburg Virus. Marburg virus pseudotyped entry inhibition, cell reporter; control for the full effect not named in the record; about a third of the inactives were read at about 46 µM. Potency, µM (series often up to 37.8 µM), for inactives: top-dose activity change, negative = inhibition, most hits filed as inhibitors. 300,000 compounds, 1.8% hits. AID 540276, 2011; active = well fitted inhibition curve with a large enough effect; inconclusive = small, poorly fitted or top-dose-only effect, or effect the other way; inactive = flat fitted curve, though single readings scatter; tested in HEK293 cells; about a fifth of its hits are not listed in these tables; note: % is set by controls: 0 for no effect and ±100 for the full control effect; luciferase read-out
Cruzain inh Det = qHTS Assay for Promiscuous and Specific Inhibitors of Cruzain (with detergent) | Cruzipain (Trypanosoma cruzi), P25779 | AID 1478, 2009 | purified cruzain, Z-FR-AMC fluorescence, 0.01% Triton | Potency, µM, without a hit: max response, negative = inhibition, hits mostly inhibitors | 200,000 compounds, 0.43% hits;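 note: plate controls were neutral wells for no effect and buffer without enzyme for full effect; nearly all actives have a fitted effect of over 40% in size; top concentration of the series not given in the record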
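Sodium acetate buffer (100 mM, pH 5.5) containing 5 mM DTT and 0.01% Triton X-100 hosted 1.5 nM cruzain and test compound for 15 min at room temperature. Cleavage of 2 uM Z-FR-AMC was then tracked by fluorescence.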
The depositor's hits bear a star; ? = inconclusive; / = no result given; & = joins results of further samples; [ ] = another dose, or the depositor's remark. Unless noted, calls come from the whole dose curve; as a rule, active = well fitted curve in the direction sought with a large enough effect; inconclusive = small, poorly fitted or top-dose-only effect, or another doubt; inactive = no such curve, though single readings can be large; an effect the other way counts as inactive or inconclusive. Potency is the fitted concentration of half-maximal effect. This is a random part of the collection, and some 4.6% of all compounds hit somewhere here.

SMILES	StopGo reporter	NS1 function inh	LASV entry inh	RE007 growth inh	SARS PLP yeast	Cruzain inh noDet	MARV entry inh	Cruzain inh Det
Cc1ccc(/C(N)=N/OC(=O)c2cccc(F)c2)cc1	44%[activator]	-16%	?	-14%	8%	2%	14%	-0.2%
COc1cccc(C(=O)NCC(=O)N/N=C/c2cccnc2)c1	-14%	3%	/	-2%	-5%	/	/	/
COc1ccc(C2C3=C(CC(C)(C)CC3=O)Nc3cc4c(cc32)OCO4)cc1 (stereo not drawn)	-5%	8%	7%	2%	3%	2%	?	-3.5%
COCCN(C(=O)CSc1nnc(Nc2ccc(C)cc2)s1)c1c(N)n(CC(C)C)c(=O)[nH]c1=O	17%	/	?	-21%	1%	/	-21%[46.1 µM]	/
O=C(CSc1ncn[nH]1)Nc1ccccc1-c1ccccc1	20%	4%	?	-8%	?	-7%	8%	2.5%
CCCCN(C(=O)c1cccs1)c1c(N)n(Cc2ccccc2)c(=O)[nH]c1=O	-20%	/	-4%	22%	-3%	/	5%	/
CC1=C(C(=O)Nc2cccnc2)C(c2ccccc2Cl)n2nc(-c3ccccc3)nc2N1 (stereo not drawn)	-11%	/	-11%[46.1 µM]	/	/	11%	?	-4.3%
COC(=O)CNS(=O)(=O)c1ccc(Cc2ccc(S(=O)(=O)NCC(=O)OC)cc2)cc1	?	-10%	21%	2%	4%	-3%	7%	1.9%
O=C(Nc1ccc(O)cc1)c1ccc2c(c1)C(=O)N(Cc1cccnc1)C2=O	-8%	11%	25%	5%	28%	/	15%	/
COC(=O)c1cc(C(C)=O)n2ccccc12	8%	-4%	6%	-8%	1%	1%	?	-9.0%
CCC(=O)c1ccc(OCC(=O)NC2(C#N)CCCCC2)cc1	6%	/	/	-13%	3%	/	-2%[46.1 µM]	/
COc1cc(OC)c(C(=O)OCC(=O)NC2CCCCCCC2)cc1OC	-8%	/	0%	-4%	-5%	/	1%	/
C#CC(C)(C)NC(=O)c1sccc1Oc1ccc(F)cc1[N+](=O)[O-]	-22%	/	-3%	26%	-1%	/	?	/
O=C(CSc1nc2cc(Cl)ccc2s1)N1CCCc2ccccc21	/	5%	12%	1%	-3%	-14%	?	-1.8%
CSc1ccc(NC(=O)C2CCN(c3ncccn3)CC2)cc1	21%	/	6%[46.1 µM]	/	/	1%	9%[46.1 µM]	3.6%
CC(C)CC(=O)NCCCN1CCN(CCCNC(=O)CC(C)C)CC1	10%	26%	-26%	11%	16%	2%	?	7.1%
CC(C)CCP(=O)(O)c1ccccc1	4%	1%	-1%	17%	14%	-2%	1%	3.8%
Cc1ccc(NC(=O)C(=O)NCC2CCCN2S(=O)(=O)c2cccs2)cc1 (stereo not drawn)	-14%	/	-3%	-2%	-2%	/	-4%	/
S=c1[nH]nc(Cc2cccc3ccccc23)o1	-7%	-8%	12%	?	14%	0%	-21%	-3.4%
Cc1nonc1NC(=O)CSc1nnnn1-c1ccccc1	-2%	8%	-9%	-12%	1%	/	0%[46.1 µM]	/
COCCOC(=O)c1sc2nc[nH]c(=O)c2c1C	-13%	/	-8%[46.1 µM]	1%	0%	/	16%	/
Cc1cc(CN2C(=O)c3ccccc3C2=O)no1	-10%	-6%	7%	7%	4%	-2%	9%	1.4%
O=C(NCCN1CCOCC1)c1ccc(Cl)nc1	15%	-4%	4%[46.1 µM]	7%	5%	/	-2%[46.1 µM]	/
CN1CCC(OC(=O)COc2ccc(Cl)cc2Cl)CC1	6%	/	2%	-5%	0%	/	11%	/
Cc1cc(NC(=O)Cc2cc(F)cc(F)c2)no1	-2%	0%	/	17%	0%	/	/	/
COc1ccc(CCNC(=O)COC(=O)c2cc(S(=O)(=O)NCc3ccccc3)ccc2O)cc1OC	15%	7%	19%	-8%	2%	/	7%[46.1 µM]	/
CN1C2CCC1CC(NC(=O)CSc1ccc(C(C)(C)C)cc1)C2 (stereo not drawn)	-14%	-1%	/	-3%	0%	/	/	/
Cc1cccc(Cn2c(N(C)CCO)nc3c2c(=O)[nH]c(=O)n3C)c1	9%	-5%	/	0%	1%	-6%	/	-1.0%
COc1ccc(CCNS(=O)(=O)c2ccc(-n3cnnn3)c(OC)c2)cc1OC	7%	-7%	/	-3%	1%	/	/	/
COc1ccc(NC(=O)C(=O)NCC2(c3ccccc3)CCCC2)c(OC)c1	-22%	/	-23%[46.1 µM]	/	/	0%	8%[46.1 µM]	1.3%
Cc1[nH]n(-c2ccc(Br)cc2)c(=O)c1/C=N/NC(=O)c1ccccc1	-5%	-19%	/	-1%	1%	/	/	/
CCOc1ccc(-n2c(=S)sc3c(=O)[nH]c(SCC(=O)NCC4CCCO4)nc32)cc1 (stereo not drawn)	2%	-3%	3%&-3%	7%	21%	13%	3%&-1%	-14%
CC(C)N1CCc2c(sc(NC(=O)C3CCCCC3)c2C(N)=O)C1	?	-1%	/	11%	-3%	/	/	/
Cc1nn2c(SCC(=O)c3cccs3)cc(C(C)(C)C)nc2c1-c1ccccc1	-22%	12%	4%	24%	-13%	-6%	-6%	-4.8%
CC(NC(=O)COc1ccc(/C=N/NS(=O)(=O)c2ccccc2)cc1)c1ccccc1 (stereo not drawn)	-18%	-6%	-12%	1%	1%	-7%	-21%	-4.2%
COc1ccc(CN(CC2CCC(C(=O)O)CC2)C(=S)Nc2cccc(C)c2)cc1 (stereo not drawn)	6%	/	/	2%	-8%	/	9%[46.1 µM]	/
Cc1nc2ccn(Cc3cccnc3)c(=O)c2cc1C(=O)Nc1ccc(F)cc1F	-23%	/	-8%[46.1 µM]	/	/	-2%	/	-1.9%
Cc1occc1C(=O)N/N=C/C=C/c1ccc(N(C)C)cc1	34%[activator]	-11%	/	0%	-5%	/	/	/
Cc1ccccc1C(=O)N(Cc1sccc1C)C1CCS(=O)(=O)C1 (stereo not drawn)	-13%	/	19%[46.1 µM]	/	/	0%	-12%[46.1 µM]	-1.2%
CCC(=O)OC1CSc2nc3ccccc3n2C1 (stereo not drawn)	-6%	1%	?	-21%	6%	-6%	4%	-0.4%
O=C(Nc1ccc2c(c1)OCO2)C1CC(=O)N(c2ccccc2)C1 (stereo not drawn)	-21%	-6%	14%[46.1 µM]	6%	0%	/	/	/
COc1ccc(CCC(=O)NC2CC(=O)N(c3ccc(OC)cc3)C2)cc1 (stereo not drawn)	-11%	/	-2%[46.1 µM]	/	/	-1%	/	0.1%
CN(Cc1ccccc1)C(=O)c1cn(C)c2ccc(S(=O)(=O)N(C)C3CCCCC3)cc2c1=O	18%	/	9%[46.1 µM]	/	/	6%	13%[46.1 µM]	-3.2%
CCOc1ccc(-n2c(SCC(=O)N3CCC(C(=O)O)CC3)nc3ccccc3c2=O)cc1	6%	15%	?	-14%	2%	/	10%	/
CCc1nnc(NC(=O)CSc2nnc(-c3ccoc3C)n2CC(C)C)s1	-20%	6%	-4%	-17%	11%	11%	-3%	-2.4%
CC(C)(C)c1ccc(OC2=CS(=O)(=O)c3ccccc32)cc1	0%	-8%	-5%	0%	-16%	2%	-17%	-10%
N#Cc1ccc(OCC(=O)NCCN2CCOCC2)cc1	-2%	/	4%	18%	7%	/	?	/
COc1cc(C2C(C#N)=C(N)Oc3n[nH]c(-c4ccccn4)c32)cc(OC)c1OC (stereo not drawn)	-2%	-17%	-1%	2%	-6%	-25%	5%	-1.7%

Some of these compounds in order of molar mass, highest first:
SMILES	StopGo reporter	NS1 function inh	LASV entry inh	RE007 growth inh	SARS PLP yeast	Cruzain inh noDet	MARV entry inh	Cruzain inh Det
CC(NC(=O)COc1ccc(/C=N/NS(=O)(=O)c2ccccc2)cc1)c1ccccc1 (stereo not drawn)	-18%	-6%	-12%	1%	1%	-7%	-21%	-4.2%
CCc1nnc(NC(=O)CSc2nnc(-c3ccoc3C)n2CC(C)C)s1	-20%	6%	-4%	-17%	11%	11%	-3%	-2.4%
COc1cc(C2C(C#N)=C(N)Oc3n[nH]c(-c4ccccn4)c32)cc(OC)c1OC (stereo not drawn)	-2%	-17%	-1%	2%	-6%	-25%	5%	-1.7%
Cc1[nH]n(-c2ccc(Br)cc2)c(=O)c1/C=N/NC(=O)c1ccccc1	-5%	-19%	/	-1%	1%	/	/	/
CC(C)N1CCc2c(sc(NC(=O)C3CCCCC3)c2C(N)=O)C1	?	-1%	/	11%	-3%	/	/	/
Cc1occc1C(=O)N/N=C/C=C/c1ccc(N(C)C)cc1	34%[activator]	-11%	/	0%	-5%	/	/	/
CCC(=O)OC1CSc2nc3ccccc3n2C1 (stereo not drawn)	-6%	1%	?	-21%	6%	-6%	4%	-0.4%
